CHT block: inhibits the human high affinity choline transporter | AID 488975 | CHT-expressing cells, membrane potential dye, choline response; active compounds read low | B-score at 10 µM | hit rate 0.86% among 310,000;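 active = B-score over 3 SD under the library average, and starting fluorescence ratio not unusually high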;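 also: choline stimulus applied at its EC90 after an EC20 pre-addition; B-score computed on integrated fluorescence ratio after choline addition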
Target sequence (Q9GZV3 whole entry, looked up): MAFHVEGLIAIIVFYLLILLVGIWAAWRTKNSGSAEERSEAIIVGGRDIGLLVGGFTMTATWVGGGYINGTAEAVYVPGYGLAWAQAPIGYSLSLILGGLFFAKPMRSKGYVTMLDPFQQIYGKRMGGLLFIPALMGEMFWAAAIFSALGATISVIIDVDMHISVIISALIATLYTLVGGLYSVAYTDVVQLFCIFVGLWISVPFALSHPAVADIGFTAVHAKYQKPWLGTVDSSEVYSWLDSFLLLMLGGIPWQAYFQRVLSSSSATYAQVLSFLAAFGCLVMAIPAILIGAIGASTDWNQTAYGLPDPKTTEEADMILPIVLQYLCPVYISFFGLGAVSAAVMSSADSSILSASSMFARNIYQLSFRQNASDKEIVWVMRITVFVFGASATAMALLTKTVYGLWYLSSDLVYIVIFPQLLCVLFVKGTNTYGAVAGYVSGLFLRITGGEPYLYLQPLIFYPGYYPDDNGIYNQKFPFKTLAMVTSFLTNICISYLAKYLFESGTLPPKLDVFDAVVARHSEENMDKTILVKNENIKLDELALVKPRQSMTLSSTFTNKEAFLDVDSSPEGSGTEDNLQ
Calls only; i = inactive.

SMILES	CHT block
Cc1cccc(NC(=S)NNC(=O)CCn2cc(C)cn2)c1	i
C/C(CC(=O)Nc1ccccn1)=N\NC(=O)c1ccc(C)cc1	i
CN1CCC(OC(=O)c2cccc(Cl)c2)CC1	i
Cc1cc(NC(=O)CSc2nc3cc(C(=O)NCCCOC(C)C)ccc3c(=O)n2Cc2ccco2)no1	i
O=C(Nc1ccc(C(F)(F)F)cc1)c1cc(-c2cccnc2)nc2ccc(Br)cc12	i
COc1ccc(C(CNC(=O)COc2ccc(Cl)cc2C)N2CCCCC2)cc1 (stereo not given)	i
CN(Cc1ccccc1)C(=O)COc1ccc2ccccc2c1	i
COc1cc(/C=C/C(=O)O)cc(S(=O)(=O)Nc2cc(Cl)c(Cl)cc2Cl)c1OC	i
O=C(c1cnn2c(C(F)F)cc(-c3ccccc3)nc12)N1CCCc2ccccc21	i
CCOC(=O)C1(Cc2cccc(Cl)c2)CCCN(C(=O)c2ccc(C)nc2)C1 (stereo not given)	i
Cc1cccc(C(=O)NNC(=O)CCC(=O)Nc2cccc(Cl)c2C)c1	i
Cn1c(=N)n(CC(=O)C(C)(C)C)c2ccccc21	i
COCCn1c(SCC(=O)N(C)c2ccccc2)nc2c([nH]c3ccccc32)c1=O	i
CCc1nc(N2CCN(S(C)(=O)=O)CC2)c2c3c(sc2n1)CCCC3	i
Cc1ccccc1CNC(=O)CCCn1ncn2c(cc3occc32)c1=O	i
Cc1c(O)c2ccccc2oc1=O	i
CCN(CC)C(=O)CSc1nnc(CNc2ccc(F)cc2)n1-c1ccccc1	i
O=C(NCc1cccnc1)C1CCCN(S(=O)(=O)c2ccc(Br)cc2)C1 (stereo not given)	i
CCn1c(=O)c(C(=O)NCc2ccc3c(c2)OCO3)c(O)c2ccccc21	i
Nc1c(C(=O)Nc2ccccc2)c2nc3ccccc3nc2n1CCCN1CCOCC1	i
Cc1cccc(NS(=O)(=O)c2ccc(-n3cccn3)cc2)c1C	i
CCOc1ccccc1-n1nnnc1SCC(=O)OC	i
Cc1ccc(S(=O)(=O)NCCC(=O)Nc2cc(F)ccc2C)cc1C	i
Cc1cc(C)cc(NC(=O)C(OC(=O)c2cccs2)c2ccccc2)c1 (stereo not given)	i

Structures above that contain four or more nitrogen atoms:
SMILES	CHT block
Cc1cccc(NC(=S)NNC(=O)CCn2cc(C)cn2)c1	i
C/C(CC(=O)Nc1ccccn1)=N\NC(=O)c1ccc(C)cc1	i
Cc1cc(NC(=O)CSc2nc3cc(C(=O)NCCCOC(C)C)ccc3c(=O)n2Cc2ccco2)no1	i
O=C(c1cnn2c(C(F)F)cc(-c3ccccc3)nc12)N1CCCc2ccccc21	i
COCCn1c(SCC(=O)N(C)c2ccccc2)nc2c([nH]c3ccccc32)c1=O	i
CCc1nc(N2CCN(S(C)(=O)=O)CC2)c2c3c(sc2n1)CCCC3	i
Cc1ccccc1CNC(=O)CCCn1ncn2c(cc3occc32)c1=O	i
CCN(CC)C(=O)CSc1nnc(CNc2ccc(F)cc2)n1-c1ccccc1	i
Nc1c(C(=O)Nc2ccccc2)c2nc3ccccc3nc2n1CCCN1CCOCC1	i
CCOc1ccccc1-n1nnnc1SCC(=O)OC	i

(list continues)
SMILES	CHT block
CCOC(=O)CNC(=S)N(Cc1ccccc1F)C1CCCCC1	i
COc1ccccc1N(CC(=O)N/N=C/c1ccccc1C(=O)O)S(C)(=O)=O	i
Cc1cc2occ(CC(=O)NC3CCCc4ccccc43)c2cc1C (stereo not given)	i
NC(=O)c1ccc(NCC2COc3ccccc3O2)c([N+](=O)[O-])c1 (stereo not given)	i
Cc1c(C(=O)Nc2ccccc2Cl)oc2ccc(S(=O)(=O)N3CCC4(CC3)OCCO4)cc12	i
CCOC(=O)c1sc(=S)n(Cc2ccccc2)c1N	i
CN1CCN(C(=O)CN(Cc2ccccc2)S(C)(=O)=O)CC1	i
CCCCCCCC(=O)N1c2ccccc2NC(=O)C1CC(=O)Nc1ccc(C(=O)O)cc1 (stereo not given)	i
COCCCNC(=O)C1CCN(S(=O)(=O)c2c(C)noc2/C=C\c2ccc(OC)cc2)CC1	i
Cc1ccccc1C(=O)NC1CCN(Cc2nnnn2Cc2ccccc2)CC1	i
CCOc1ccc(/C=N\NC(=O)c2c(C)nc3cc(C)ccn23)cc1	i
CCOc1ccc(/C(O)=C2/C(=O)C(=O)N(CC3CCCO3)C2c2ccc(C)o2)cc1 (stereo not given)	i
COc1ccccc1CNCC(=O)Nc1ccc(N(C)C)cc1	i
CCOC(=O)c1c(C)[nH]c(C(=O)OC(C)C(=O)NCc2ccccc2)c1C (stereo not given)	i
Cc1cc(C(=O)Cn2nc(C(=O)O)c3ccccc3c2=O)c(C)n1CCc1ccc(Cl)cc1	i
O=C1C=C(N2CCCCC2)C2(CCCCC2)O1	i
Cc1ccc2c(C)c(C(=O)NCc3ccc(S(N)(=O)=O)cc3)oc2c1C	i
COc1ccc2oc(C(=O)OCc3c(C)noc3C)c(C)c2c1	i
CC12CCC(C/C1=N\N=C1\NC(=O)/C(=C\c3ccc(Cl)cc3)S1)C2(C)C (stereo not given)	i
N=c1oc2ccc(Br)cc2cc1C(=O)NCc1ccccc1	i
CC(C)(C)c1cc(C(=O)N2CCc3ccccc3C2)ccn1	i
Cc1cccc(-n2c(SCC(=O)Nc3cccc(S(=O)(=O)NC4=NCCCCC4)c3)nc3ccccc3c2=O)c1C	i
CCc1c(C)sc(NC(=O)CCc2ccc(OC)cc2)c1C(N)=O	i
O=C(NC1CC2CCCC(C1)N2C(=O)Nc1ccccc1Cl)C1CC1 (stereo not given)	i
CCOC(=O)N1CCN(CC(O)c2c[nH]c3ccccc23)CC1 (stereo not given)	i
Cc1cc(NC(=O)CN2CCOCC2)n(-c2ccccc2)n1	i
COc1ccc(Cn2c(=O)[nH]c3cc(C(=O)N4CCN(c5ccccc5F)CC4)ccc3c2=O)cc1	i
CCc1ccc(S(=O)(=O)Nc2c(C)nc3nc[nH]n3c2=O)cc1	i
COc1ccccc1CCC(=O)OCC(=O)Nc1ccc(C)c(S(=O)(=O)N2CCCCC2)c1	i
Cc1ccc(Cc2cnc(NC(=O)C3CCCO3)s2)cc1 (stereo not given)	i
CC(Oc1ccccc1)C(=O)Nc1nc2c(s1)C(=O)CC(C)(C)C2 (stereo not given)	i
CC(C)(C)NC(=O)CN(C(=O)CCC(=O)Nc1nccs1)c1ccc(F)cc1	i
Cc1ccnn1CCC(=O)N1CCCC(CCC(=O)N2CCN(c3ccccn3)CC2)C1 (stereo not given)	i
CCC(C)NC(=O)C1c2cc(OC)c(OC)cc2C(=O)N(C)C1c1cccs1 (stereo not given)	i
O=C(Nc1ccc(SC(F)F)cc1)c1ccc(F)cc1	i
CCOC(=O)N1CCN(C(=O)C2CCN(Cc3nc(-c4ccccc4C)oc3C)CC2)CC1	i

Laid out differently: results already given
| Compound | CHT block |
| --- | --- |
| CCOC(=O)N1CCN(CC(O)c2c[nH]c3ccccc23)CC1 (stereo not given) | i |
| Cc1cc(NC(=O)CN2CCOCC2)n(-c2ccccc2)n1 | i |

(further entries)
SMILES	CHT block
CC(=O)Nc1ccc(NS(=O)(=O)c2cc(-c3n[nH]c(=O)c4ccccc34)ccc2C)cc1	i
Cc1ccc(C(=O)COC(=O)CCC(=O)NC2CCCCC2)cc1[N+](=O)[O-]	i
C=CCNC(=O)NC(=O)CN1C(=O)NC(c2ccccc2)(c2ccccc2)C1=O	i
Cc1ccc(CN2CCN(C(=O)CCN3C(=O)c4ccccc4C3=O)CC2)cc1	i
CCn1c(SCC(=O)Nc2ccc(S(=O)(=O)Nc3ccccn3)cc2)nnc1-c1ccncc1	i
Cc1ccsc1C(=O)NCCC(c1ccccc1)c1ccccc1	i
CC(=O)Nc1ccc(S(=O)(=O)NC2(C(F)(F)F)NC(=O)N(c3ccc(C)cc3)C2=O)cc1 (stereo not given)	i
CC(=O)Nc1ccc2nc3c(=O)n(C)c(=O)n(C)c3nc2c1	i
O=C(NC1CC1)c1ccc(CSCc2cccc(F)c2)o1	i
CCC(CC)C(=O)Nc1cccc(/C(C)=N\NC(=O)c2ccc(C)s2)c1	i
CC(C)(C)NC(=S)NNC(=O)c1ccc2ncccc2c1	i
COc1ccc(-c2nc(NC(=O)CSCCO)sc2C)cc1	i
CC(NC(=O)Nc1cccc(Cl)c1)C(c1cccs1)N1CCCC1 (stereo not given)	i
CCOc1ccc(N2CC(C(=O)N3CCN(c4ccccn4)CC3)CC2=O)cc1 (stereo not given)	i
COc1ccc(OCC(=O)NNC(=S)NC(=O)c2ccc([N+](=O)[O-])cc2)cc1	i
Cc1ccc(S(=O)(=O)N(CC(=O)Nc2ccccc2C(=O)O)c2ccccc2)cc1	i
COc1ccc(C(=O)COC(=O)CCCn2c(=O)oc3ccccc32)cc1	i
Cc1ncc(CN2CCCC(C(=O)Nc3ccc(-c4cccc(F)c4)cc3)C2)cn1 (stereo not given)	i
CCCn1c(SCC(=O)N2c3ccccc3CC2C)nnc1-c1ccco1 (stereo not given)	i
O=C(c1cnc2sccn2c1=O)N1CCCc2ccccc21	i
CCOc1ccccc1Oc1coc2cc(O)ccc2c1=O	i
CCc1ccc(OC)c(S(=O)(=O)NCCOc2ccccc2)c1	i
CCNc1nc(OCCNC(C)=O)nc(N(C)C)n1	i
S=c1[nH]nc(C2CCCCC2)n1/N=C/c1ccccc1	i
COc1ccc(OC)c(S(=O)(=O)Nc2ccc3oc4c(c3c2)C(=O)CCC4)c1	i
Nc1ccc2c(c1)N=[N+]([O-])c1cc(N)ccc1C2	i
COCCN(C(=O)/C=C/c1ccccc1)c1nnc(-c2cccnc2)s1	i
COCCCNC(=O)c1cc(C)nc2ccc(F)cc12	i
COc1ccc(C(=O)OC(C)CN2CCN(C)CC2)cc1 (stereo not given)	i
Cc1ccc(C(=O)Nc2nc3ccc(Cl)cc3s2)o1	i
CCNC(=O)CSc1nnc(C2CC2)n1-c1ccccc1	i
C=CCc1c(C)nc(SC)nc1Nc1ccc(C)cc1	i
CCc1ccc(NC(=O)N(Cc2cccnc2)Cc2ccco2)cc1	i
CCOc1ccccc1C(=O)NCC(=O)OCC(=O)c1ccc2c(c1)OCCO2	i
O=C(Nc1cccc2ncccc12)c1cc2ccccc2o1	i
NC(CO)C(=O)NNCc1ccc(O)c(O)c1O (stereo not given)	i
CCc1cc[n+](C2=C([O-])c3ccccc3C(=O)/C2=N\S(=O)(=O)c2cccs2)cc1	i
Cc1c(C(=O)N2CCN(C)CC2)oc2c1C(=O)CC(C)(C)C2	i
CN(C)C(CNC(=O)c1ccc(NC(=O)CC#N)cc1)c1ccccc1 (stereo not given)	i
CC(C)NC(=O)c1ccc(C2SCC(=O)N2Cc2ccccc2)cc1 (stereo not given)	i
O=C(O)CCn1cc(/C=C\C(=O)c2ccc(Cl)cc2)c(-c2cccc(Br)c2)n1	i
C=CCN1c2ccccc2[C@]23C[C@@H](C(=O)OC)N=C2NC(C(=O)OC)=C(C(=O)OC)[C@H]13	i
CC(NC(=O)c1ccc(N2CCCC2=O)cc1)c1ccccc1 (stereo not given)	i
Cc1ccsc1/C=N/NC(=O)C(O)c1ccccc1 (stereo not given)	i
Cc1cccc(OCc2n[nH]c(=S)o2)c1C	i
Cc1csc2nc(CCNS(=O)(=O)c3ccc4c(c3)OCCO4)cn12	i
O=C(NNC(=O)C1CC=CCC1)c1cccc(Br)c1 (stereo not given)	i
CC1CCC2CCCCC2N1C(=O)c1cc([N+](=O)[O-])cc([N+](=O)[O-])c1 (stereo not given)	i

Another view of six compounds above.
CHT block	smiles
i	CN(C)C(CNC(=O)c1ccc(NC(=O)CC#N)cc1)c1ccccc1 (stereo not given)
i	CC(C)NC(=O)c1ccc(C2SCC(=O)N2Cc2ccccc2)cc1 (stereo not given)
i	O=C(O)CCn1cc(/C=C\C(=O)c2ccc(Cl)cc2)c(-c2cccc(Br)c2)n1
i	C=CCN1c2ccccc2[C@]23C[C@@H](C(=O)OC)N=C2NC(C(=O)OC)=C(C(=O)OC)[C@H]13
i	CC(NC(=O)c1ccc(N2CCCC2=O)cc1)c1ccccc1 (stereo not given)
i	Cc1ccsc1/C=N/NC(=O)C(O)c1ccccc1 (stereo not given)

Next part.
SMILES	CHT block
CCn1c(SCC(=O)Nc2nc3c(s2)CCCC3)nnc1-c1ccccc1	i
COc1ccc(NC(=O)[C@@H]2CC=C[C@@H]3CCN(Cc4ccccc4)C(=O)[C@@H]32)cc1	i
CC1CN(C(=O)Cn2cc(SCC(=O)N3CCOCC3)c3ccccc32)CC(C)O1 (stereo not given)	i
Cc1nc(C(N)=O)c(N)n1CCc1ccccc1	i
COc1ccccc1N1CCN(S(=O)(=O)CCNC(=O)c2cc(=O)c3ccccc3o2)CC1	i
O=C(O)CN1C(=O)C2C3C=CC(C2C1=O)C1C(=O)N(CC(=O)O)C(=O)C31 (stereo not given)	i
CC(=O)Nc1cccc(OCC(=O)NS(=O)(=O)c2ccc(C)cc2)c1	i
Cc1ccc(S(=O)(=O)CCC(=O)NCCc2ccc(Cl)cc2)cc1	i
CCc1cccc(NC(=O)COC(=O)C2CCN(c3ccc(C(F)(F)F)cn3)CC2)c1	i
O=C(CN1C(=O)NC2(CCOc3ccccc32)C1=O)NCC(F)(F)F (stereo not given)	i
COc1ccc2c([N+](=O)[O-])c(N3CCCC3)[nH]c2c1	i
O=C(CSC1=NS(=O)(=O)c2cc(Cl)ccc2N1)Nc1cccc(F)c1	i
Cc1cc2cc(C)c3nnc(SCC(=O)NCc4ccco4)n3c2cc1C	i
CC(=O)Nc1ccccc1C(F)(F)F	i
CN(Cc1cnccn1)C(=O)CC1C(=O)NCCN1Cc1ccc(F)cc1Cl (stereo not given)	i
Cc1cc(C)cc(N2C(=O)CC(n3ccnc3)C2=O)c1 (stereo not given)	i
CCCCOc1ccc(NC2=NC3(CCCCC3)N=C(N)N2)cc1	i
COc1cccc(C(=O)Nc2cc(NC(=O)c3ccco3)ccc2OC)c1	i
FC(F)(F)c1n[nH]c(=S)n1/N=C/c1ccco1	i
O=C(O)c1ccc(S(=O)(=O)NC2CCCc3ccccc32)cc1 (stereo not given)	i
CCc1ccc(NC(=O)CSCc2nc(N)nc(Nc3ccccc3CC)n2)cc1	i
COc1ccccc1NC(=S)N1CCN(C/C=C/c2ccccc2)CC1	i
CC(NC(=O)c1ccc(CS(C)(=O)=O)cc1)c1ccc(-n2ccnc2)cc1 (stereo not given)	i
O=C(O)C1CCN(C(=O)c2cccc3ccccc23)CC1	i
CCc1ccc(NC(=O)CSc2nc(=O)n3cc(C)ccc3n2)cc1	i
COc1ccccc1NC(=O)CC(NCCN(C)C)C(=O)O (stereo not given)	i

Compound activity: PubChem, Johns Hopkins Ion Channel Center

A portion of the library, and most or all hits are left out here.
